VACV Venus inh – vaccinia inhibition (Venus reporter). Vaccinia virus Venus reporter expression, fluorescence. Potency, µM (highest dose often 36.5 µM), inactives show top-dose activity change, negative = inhibition, hits mostly inhibitors. 330,000 compounds, 0.46% hits; active means well fitted inhibition curve with a large enough effect; inconclusive means small, poorly fitted or top-dose-only effect; inactive means no such curve, though single readings can be large or run the other way; tested in A549 cells; further: nearly all actives have a fitted effect of over 30% in size; inactives centre near -10
VACV mCherry inh – inhibitors of vaccinia virus infection (mCherry reporter signal). Vaccinia virus mCherry reporter infection, fluorescence; about a quarter of the inactives have no number. Potency, µM (highest dose often 36.5 µM), inactives show at the highest dose activity change, negative = inhibition, actives largely listed as inhibitors. 310,000 compounds, 0.63% hits. AID 720579; active = well fitted inhibition curve with a large enough effect; inconclusive = small, poorly fitted or top-dose-only effect; inactive = no such curve, though single readings can be large or run the other way; tested in A549 cells; further: nearly all actives have a fitted effect of over 35% in size; inactives centre near -10
An asterisk follows results filed as active; i = inactive; ? = inconclusive; . = no result given; & = joins results of further samples; [ ] = dose if it differs, or a comment. On the % scale 0 is the no-effect control and ±100 the full control effect; potency means the concentration at half of the fitted maximal effect.

Every second line gives: VACV Venus inh | VACV mCherry inh
1	CCO[C@H]1OC(C(=O)O)=C[C@@H](C2CCCCC2)[C@@H]1CCCO
  -8% | i
2	C#Cc1ccc([C@H]2C=C(C(=O)NCc3nc4ccccc4[nH]3)O[C@@H](OCc3ccc(CO)cc3)C2)cc1
  -4% | -12%
3	COc1ccc(F)cc1S(=O)(=O)NCc1ccccc1
  -9% | -18%
4	O=C(O)C1CC=CCC1C(=O)NCc1ccc(Cl)c(Cl)c1 (centres undefined)
  -5%[7.34 µM] | -8%[7.34 µM]
5	S=C1NC2(CCCCC2)NN1c1ccccc1
  -8% | -18%
6	CSc1ncc(Cl)c(C(=O)Nc2ccc(S(=O)(=O)N3CCC(C)CC3)cc2)n1
  -19% | -30%
7	CCOc1ccc(NC(=O)CCS(=O)(=O)c2ccc3c(c2)n(C)c(=O)c(=O)n3C)cc1
  -10% | -7%
8	COC(=O)c1cc(OC)c(OC)cc1NC(=O)Nc1ccc(OC)cc1
  -26% | .
9	Cc1ccnc(N2CCCC(C(=O)NC3CC3)C2)n1 (centres undefined)
  -17% | -11%
10	COc1ccc(-n2ccnc2SCC(=O)NC2CCCC2)c(OC)c1
  -11% | i
11	COc1ccc(NC(=O)Nc2cccnc2)c(OC)c1
  -4% | i
12	Cc1cc([N+](=O)[O-])nn1CC(=O)Nc1ccc(Cc2ccncc2)cc1
  -14% | -20%
13	CCNC(=S)N1CCN(CCN2C(=O)c3cccc4cccc(c34)C2=O)CC1
  3% | 4%
14	C=CCc1cc(Cl)ccc1OCCNCCCOC
  -15% | -15%
15	CN(C)CCCNc1ncnc2c1c(-c1ccccc1)cn2-c1ccccc1
  -29% | ?
16	COCCNC(=O)C1(C)CCCN(Cc2ccc(Cl)nc2)C1 (centres undefined)
  6% | 5%
17	CCOc1ccccc1Nc1cc(C)c2cccc(C)c2n1
  -13% | -11%
18	O=C(COC(=O)c1cccc(Cl)c1Cl)NC1CCCC1
  -18% | -15%
19	CCC(=O)N1c2ccccc2NC2=C(C(=O)CC(c3ccco3)C2)C1c1ccco1 (centres undefined)
  -28% | .
20	Cc1cccnc1NC(=O)c1ccc(S(=O)(=O)NCc2ccco2)cc1
  -7% | -14%
21	Cc1sc2nc(CSc3ccccc3)nc(NCCN(C)C)c2c1C
  -22% | 12%
22	O=C(Cn1c(NCCO)nc2ccccc21)NCC1CCCO1 (centres undefined)
  -2% | -10%
23	COc1ccc(-c2cc(C(=O)Nc3ccc(C#N)cc3)no2)cc1
  -11% | -7%
24	CCn1ncc(CN2CCC(Oc3cc(C(=O)NC4CC4)ccc3OC)CC2)c1C
  -17% | i
25	NC(=S)Nn1c(-c2ccccc2)nc2ccccc2c1=O
  -6% | -12%
26	O=C(CSc1nnc(-c2ccc(F)cc2)n1CC1CCCO1)NCc1ccco1 (centres undefined)
  2% | -14%
27	CC1CCCN(C(=O)CN2CCN(C(=O)c3ccco3)CC2)C1 (centres undefined)
  -8% | i
28	CCOc1ccc(NC(=O)c2cnc(N3CCCC3)nc2C)cc1
  -7% | 5%
29	O=C(c1ccccc1N(Cc1ccccc1)S(=O)(=O)c1ccccc1)N1CCOCC1
  6% | i
30	CCOC(=O)C1CCN(c2c(NCc3ccc(C(=O)NCCOC)cc3)c(=O)c2=O)CC1
  -17% | .

Some of the entries so far, with one line to a screen:
#19 CCC(=O)N1c2ccccc2NC2=C(C(=O)CC(c3ccco3)C2)C1c1ccco1 (centres undefined)
#20 Cc1cccnc1NC(=O)c1ccc(S(=O)(=O)NCc2ccco2)cc1

Compound	19	20
VACV Venus inh	-28%	-7%
VACV mCherry inh	.	-14%

Next structures
Every second line gives: VACV Venus inh | VACV mCherry inh
31	CCOC(=O)c1ccc(NC(=O)CC2SC(=NC)N(C)C2=O)cc1 (centres undefined)
  -7% | .
32	O=C(CSc1nnc(-c2ccc(Cl)cc2)n1Cc1ccco1)NCc1ccc2c(c1)OCO2
  -12% | .
33	CC(=O)Nc1cc(OC(C)=O)c2nonc2c1OC(C)=O
  7.9µM* | 7.9µM*
34	N#C/C(=C\Nc1ccc2c(c1)OCCO2)C(=O)NCc1ccco1
  1%[7.34 µM] | -9%[7.34 µM]
35	COc1cccc(NC(=O)CN(C)C(=O)COc2ccc3ccccc3c2)c1
  -13% | -3%
36	CCN1CCN(c2nc3ccccn3c(=O)c2/C=C(\C#N)S(=O)(=O)c2ccccc2)CC1
  0% | i
37	O=C(OCC(=O)N1CCOCC1)c1ccc(O)cc1
  -6% | -2%
38	CC(=O)Nc1cccc(NC(=O)c2sc3ncn(CC(=O)N4CCCCC4)c(=O)c3c2C)c1
  -4% | -3%
39	CCC(=O)N1CCc2cc(CNS(=O)(=O)c3ccc(Br)s3)ccc21
  -8% | -7%
40	Cn1c(O)c(C=NCCN2CCN(C(=O)c3ccccc3)CC2)c(=O)n(C)c1=O
  -8% | -13%
41	Cc1nc(SCC(N)=O)[nH]c(=O)c1Cc1ccc(OC(C)C)cc1
  8% | -7%
42	COc1ccc(/C=C2\N=C3CCCN3C2=O)cc1
  -15% | -15%
43	Cc1ccc(C(=O)NC(=S)Nc2ccc(N3CCOCC3)cc2)cc1
  -12% | ?
44	Cc1cc(C)c(S(C)(=O)=O)c(NN)n1
  0% | -3%
45	NC(=S)c1c(Cl)cc(C(F)(F)F)cc1Cl
  -16% | -19%
46	Cn1nc(C(F)(F)F)c(-c2ccc(F)cc2)c1NC(=O)CSCC(=O)O
  -13% | -20%
47	O=C(Cn1cnc2ccccc21)N/N=C/c1ccc([N+](=O)[O-])cc1
  -8% | -17%
48	O=[N+]([O-])c1cc2c(c([N+](=O)[O-])c1)Nc1ccccc1O2
  -28% | ?
49	CCOC(=O)C1CCC(=O)C1 (centres undefined)
  -3% | i
50	COc1ccc(-n2nc(C(=O)NCC(=O)NC3CCCCCC3)c3ccccc3c2=O)c(OC)c1
  -15% | ?
51	O=C(c1ccc2ccccc2c1)N1CCOCC1
  -11% | -17%
52	Cc1ccccc1CC1SC(N)=NC1=O (centres undefined)
  -2% | -14%
53	COc1ccc(CCC(=O)OCC(=O)NCc2ccccc2)cc1
  -7% | i
54	O=C(NC1CCCCC1)C(c1ccc(F)cc1)N(CCCN1CCOCC1)C(=O)c1ccc(CN2CCOCC2)o1 (centres undefined)
  -1% | i
55	N#CC1=C(N)N(c2ccccc2Sc2ccccc2)C(=O)C1
  0% | .
56	CCc1ccc(Nc2cnn(C34CC5CC(CC(CC(=O)O)(C5)C3)C4)c(=O)c2Cl)cc1
  2% | 0%
57	CC(=O)c1ccc(N2CCN(C(=O)CCCn3c(=O)[nH]c4ccsc4c3=O)CC2)cc1
  4%&2% | -5%&-11%
58	COc1ccc(S(=O)(=O)N2CCOCC2)cc1NC(=O)CN1CCN(C)CC1
  -3% | -5%
59	Cc1c(NC(=O)Cc2ccc(Cl)cc2)cccc1-c1nc2cccnc2s1
  -15% | -16%
60	COc1ccc(N(CC(=O)N/N=C/c2ccc(OC)cc2OC)S(=O)(=O)c2ccccc2)cc1
  -1% | i

Single records, as listed above. Order of screens: VACV Venus inh, VACV mCherry inh
CCc1ccc(Nc2cnn(C34CC5CC(CC(CC(=O)O)(C5)C3)C4)c(=O)c2Cl)cc1 across the screens: 2%, 0%
Cn1nc(C(F)(F)F)c(-c2ccc(F)cc2)c1NC(=O)CSCC(=O)O across the screens: -13%, -20%

Continuation:
Every second line gives: VACV Venus inh | VACV mCherry inh
61	CC(C)CC1NC(=O)c2cc3ccccc3cc2-n2c1nc1cc(Cl)ccc1c2=O (centres undefined)
  ? | i
62	CNc1ncnc2c1ncn2-c1ccccc1
  -16% | i
63	Cc1ccccc1NC(=O)COC(=O)CNC(=O)c1sc2ccccc2c1Cl
  -11% | -11%
64	O=C(CCC(=O)Nc1ccc(Cl)cc1Cl)NNC(=O)[C@@H]1CCCC[C@@H]1C(=O)O
  -4% | -11%
65	Cc1cc(C)c(/C=C/c2onc(C)c2S(=O)(=O)N2CCC(C(=O)N3CCN(c4ccccc4)CC3)CC2)c(C)c1
  -17%[7.34 µM] | -13%[7.34 µM]
66	CN(C)CCN1C(=O)c2ccccc2C1=O
  -7% | i
67	O=C(CN(CC1CCCO1)C(=O)CNS(=O)(=O)c1ccc(F)cc1)NC1CCCCC1 (centres undefined)
  -1% | -2%
68	O=Cc1cccc(Oc2ncccn2)c1
  -6% | i
69	O=C(c1ccc(S(=O)(=O)Nc2ccccc2F)cc1)N1CCCC1
  -2% | -15%
70	Cc1cccc(C2(c3cccc(C)c3)CC2C(=O)Nc2ccc([N+](=O)[O-])cc2O)c1 (centres undefined)
  ? | ?
71	CCOC(=O)N1CCC(N2CCCC(C(=O)c3cc(F)ccc3OC)C2)CC1 (centres undefined)
  -15% | -2%
72	Cc1noc(C(=O)Nc2cccnc2)c1Cl
  -17% | 3%
73	COc1ccc(S(=O)(=O)Nc2ccccc2C(=O)N2CCOCC2)cc1Br
  -11% | -25%
74	Cn1c(=O)c2sccc2n(Cc2ccc(Br)cc2)c1=O
  10% | i
75	COc1cccc(NC(=O)c2ccc(OC(F)(F)F)cc2)c1
  -10% | 3%
76	Cc1c(C(=O)N2CCCCC2)c(S(=O)(=O)N2CCC(C)CC2)c(C)n1C
  -6% | i
77	NC(Cc1c[nH]c2ccccc12)C(=O)NCc1ccccc1 (centres undefined)
  5% | -8%
78	Cc1ccc2cccc(NC(=O)C(C)Oc3ccc(Cl)cc3Cl)c2n1 (centres undefined)
  -13% | -15%
79	CSc1ccc(CN2CCC2(C)C(=O)NCc2ccccc2Br)cc1 (centres undefined)
  -3% | 17%
80	O=C(O)CC1(CC(=O)NCc2cc(F)cc3c2OCOC3)CCCCC1
  -2% | -12%
81	CC(C)CNC(=O)c1cc(=O)[nH]c2ccc(S(=O)(=O)Nc3ccc(F)cc3)cc12
  -1% | -2%
82	CC(C)C1C(=O)N(Cc2cn(CCC3OCCCO3)nn2)CCS(=O)(=O)N1Cc1ccc(-c2ccc(Cl)nc2)cc1 (centres undefined)
  -17% | ?
83	CCCCNC(=S)N1CCn2cccc2C1c1cccnc1 (centres undefined)
  -4% | i
84	O=C1NC(c2ccc3c(c2)OCO3)Oc2ccccc21 (centres undefined)
  -16% | -4%
85	COC(=O)c1ccc(/C=N/NC(=O)C2CC(=O)N(c3ccc(OC)cc3)C2)cc1 (centres undefined)
  -17% | -4%
86	c1ccc(-c2ccc(-n3ccnc3)cc2)cc1
  1% | -4%
87	O=C(Nc1ccc(S(=O)(=O)NCC2CCCO2)cc1)c1cccc(F)c1 (centres undefined)
  -4% | 4%
88	COC(=O)c1c(N)c(C#N)c(C)n1-c1ccccc1
  -6% | .
89	CCC1(Oc2ccccc2)C(=O)NC(=O)NC1=O
  9% | -15%
90	O=C(NCc1ccccc1CN1CCCC1)c1ccc(S(=O)(=O)Nc2ccccc2F)cc1
  -25% | ?
91	COc1cc2c(c(OC)c1)C(c1cccc(OC)c1OC)CC(=O)N2 (centres undefined)
  -8% | 6%
92	Cc1ccc(S(=O)(=O)Cc2cn3cccnc3n2)cc1
  22% | -11%
93	O=C(Nc1cccc(Cl)c1)NC1(C(=O)NCc2cccs2)CCCCC1
  -4% | -8%
94	CCOc1ccc(CCNC(=O)c2cccc(S(=O)(=O)N3CCCC3)c2)cc1OCC
  -17% | i
95	CCc1ccc(C(=O)c2cncc(Br)c2)cc1
  -13% | -12%
96	COc1ccc(-c2c3c(nc4sc5c(=O)[nH]c(C)nc5c24)CCC3)cc1
  -9% | .
97	CC(NS(=O)(=O)c1ccc2c(c1)CC(=O)N2C)c1ccccc1 (centres undefined)
  -8% | -16%
98	CC1CCCC(NC(=O)c2cccc(S(=O)(=O)N3CCCCC3)c2)C1C (centres undefined)
  -7% | -17%
99	O=C(Nc1ccc2oc(-c3cccnc3)nc2c1)c1cc2ccccc2o1
  ? | .
100	COc1ccc(N(C)S(=O)(=O)c2cccc(C(=O)OCC(=O)Nc3sc4c(c3C#N)CCCCC4)c2)cc1
  -21% | -4%
101	CC(C)N=C1NN=C(c2cccs2)C(CC(=O)O)S1 (centres undefined)
  -9% | -13%
102	Cc1cccc(CN2C[C@H](Sc3ccccn3)C[C@H]2C(=O)Nc2ccc3sc(C)nc3c2)c1
  2% | -8%
103	COc1ccc(-c2cnc(C)o2)cc1S(=O)(=O)Nc1ccc(NC(C)=O)cc1
  7% | -3%
104	O=C(CSCc1ccccc1)N/N=C/c1ccccc1OCc1ccccc1
  -10% | -6%
105	CC1C(OC(=O)CCC(=O)NC(C)(C)CO)O[C@H]2OC3(C)CC[C@H]4[C@H](C)CCC1C24OO3 (some centres undefined)
  -9% | i
106	O=C1/C(=C\Nc2ccccc2)CCN1c1ncccn1
  -2% | i
107	COc1ccc(S(=O)(=O)N2CCCCC2c2cc(C(=O)NCc3ccccc3)no2)cc1 (centres undefined)
  -6% | i
108	COc1ccccc1NC(=O)c1ccc2c(=O)n3c(nc2c1)CCC3
  -11% | -18%
109	C=C(C)COc1ccc2c(CC)cc(=O)oc2c1C
  -4% | 14%
110	Cc1nc(Nc2ccc(O)cc2)c2c3c(sc2n1)CCCC3
  ? | 11µM*
111	O=C(O)CCn1c(-c2ccccn2)nc2ccccc21
  -9% | i
112	CCc1ccccc1NC(=S)N(CCCN1CCOCC1)Cc1ccccn1
  -7% | i
113	Cc1nc2ncnn2c(C)c1Cc1ccc(Cl)cc1
  -15% | i
114	CCN1CCN(C(=S)Nc2ccc3nc(N4CCN(CC)CC4)cc(C)c3c2)CC1
  -24% | -27%
115	O=C(CCCCC(=O)NCCc1ccccc1)NCCc1ccccc1
  -10% | i
116	Cc1c(C(=O)OC2CCCCC2)[nH]c2c1C(=O)CC(C)(C)C2
  -11% | .
117	Cc1ccc(S(=O)(=O)/N=C(\Nc2cccc(C)c2)Nc2nc(C)cc(C)n2)cc1
  -11% | -8%

Source: PubChem BioAssay (National Center for Advancing Translational Sciences (NCATS))
